Screening data: PubChem BioAssay, ICCB-Longwood Screening Facility, Harvard Medical School
Vaccinia pol inh: inhibitors of vaccinia virus processive DNA synthesis (E9 polymerase); 0.94% of 46,000 active; in vitro processive DNA synthesis, absorbance read-out; hits give low values; some inactives read as strong as hits; normalized absorbance, % (concentration not given with the values); AID 493162;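 active means replicate mean up to 90% and picked by the depositor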;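 further: 100% = median of the test wells of a plate; 100 nL library stock went into each well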
* = called active by the depositor.

SMILES	Vaccinia pol inh
O=C(Nc1cccc(C(F)(F)F)c1)c1ccc(Br)o1	103
COc1ccccc1C1CC(=O)NC(SCC(N)=O)=C1C#N (stereo not drawn)	88
CSCc1cc(=O)[nH]c(C)n1	119
COc1cc(C=Nc2ccc(Br)c(Cl)c2)ccc1O	100
Cc1cc(C(=O)OCC(=O)N(C)Cc2ccccc2)c(C)o1	105
O=C(CSc1ccc(Cl)cc1)N1CCCc2ccccc21	99
CNC(=O)/C=C/c1cccc(C(F)(F)F)c1	96
Cc1ccc(NC(=O)CC(C(=O)O)N2CCN(C)CC2)cc1Cl (stereo not drawn)	111
Cn1c(Cn2c(=O)sc3ccccc32)nnc1SCC(=O)NCc1ccccc1Cl	101
COC(=O)c1c(N2C(=O)C=CC2=O)sc2c1CCC(C)C2 (stereo not drawn)	96
CCOC(=O)c1cc(-c2ccc(C)cc2)n(CCCC(=O)Nc2cccc(CC)c2)c1	100
CN(C(=O)c1cccnc1Cl)C1CCS(=O)(=O)C1 (stereo not drawn)	98
Nc1c(-c2ccccc2)cnn1C1CCS(=O)(=O)C1 (stereo not drawn)	101
O=C(Cn1ncc2c(=O)oc3ccccc3c21)NCC1COc2ccccc2O1 (stereo not drawn)	95
O=C(NCCSc1c[nH]c2ccccc12)c1ccc2c(c1)OCO2	101
O=C(N/C(=C\c1ccc(-c2ccccc2)o1)C(=O)N1CCOCC1)c1ccccc1	96
O=c1c2ccccc2[nH]c(=S)n1CCN1CCCCC1	89
O=C(O)c1cccc(-c2ccc(/C=C3/SC(=O)N(c4ccccc4)C3=O)o2)c1	95
O/N=C/c1cc[n+](C/C=C\c2ccccc2)cc1	99
O=C(c1ccccc1)c1cc(Cl)ccc1N=Cc1cccs1	96
Cc1ccc2nc(NC(=O)C3CCCCC3)sc2c1	100
COC(=O)CCCCC1=C(NC(C)=O)C(NC(=O)c2ccccc2)CS1 (stereo not drawn)	102
O=C(CSC1=NCCN1)Nc1cc(C(F)(F)F)ccc1Cl	101
O=C(C1CC(c2c(F)cccc2Cl)=NO1)N1CCCC1 (stereo not drawn)	93
CCOP(=S)(OCC)SCSn1c(=O)oc2cc(Cl)ccc21	100
N#CC1(S(=O)(=O)c2ccc(Cl)cc2)CC1	120
O=C(OCCO)c1cccc2c1-c1ccccc1C2=O	74*
O=C(Oc1cccnc1)c1ccc(Cl)c(Cl)c1	100
CS(=O)(=O)c1ncc(Cl)c(C(=O)Nc2sc3c(c2C(=O)NCC2CCCO2)CCC3)n1 (stereo not drawn)	95
CC1(C)CC(/C=C/c2ccccc2)=Nc2ccccc2N1	114
NC(N)=NS(=O)(=O)c1ccc(N=Cc2cccs2)cc1	99
Cc1ccc(NC(=O)C(Cc2c[nH]c3ccccc23)NC(=O)OCc2ccccc2)cc1C (stereo not drawn)	99
O=C(Nc1ccc(Cl)cc1Cl)c1c(O)c2c(n(Cc3ccco3)c1=O)CCCC2	106
Cc1ccc(-c2csc(NC(=O)C(C)C)n2)c(C)c1	104
CCOc1ccc(/C=C2\SC(=Nc3cccc(C)c3C)NC2=O)cc1	100
COc1ccc(NC(=O)c2ccc(N3C(=O)c4ccccc4C3=O)cc2)cc1	100
CCOc1ccc(N2CC(c3nc4ccccc4n3CCCc3ccccc3)CC2=O)cc1 (stereo not drawn)	96
CCN=C(NCC)SC1CC(=O)N(c2ccc(OCC)cc2)C1=O (stereo not drawn)	99
Cc1nn(Cc2ccccc2)c2sc(C(=O)O)cc12	97
O=C(/C=C/c1ccco1)N1CCCc2ccccc21	111
CN1CCCc2cc(/C=N/n3c(C(F)(F)F)n[nH]c3=S)ccc21	98
Clc1ccc(Oc2nc(Oc3ccc(Cl)cc3)nc(N3CCSCC3)n2)cc1	107
COC(=O)CN1C(=O)COc2cc(S(=O)(=O)NC3CCCC3)ccc21	96
Cc1ccc(C)c(C(=O)OCC(=O)NCc2ccco2)c1	103
O=C(CSc1nc(-c2cccs2)cc(C(F)(F)F)n1)OCCCc1ccccc1	100
Cc1ccc(N=Cc2c(C)[nH]c3ccccc23)cc1C	95
CC1CCCC(C)N1C(=O)CSc1nccn1C (stereo not drawn)	103
Cc1cc(C(=O)OCC(=O)Nc2ccccc2)c(C)n1-c1ccccc1	104
CC1CCN(C(=O)COC(=O)c2ccc(I)cc2)CC1	104
ClCc1cn(-c2ccccc2)nc1-c1ccccc1	101
COc1c(O)cc2c(c1OC)CC(=O)CCC2	100
CCOC(=O)c1cnc2c(-c3ccc(Cl)cc3)cnn2c1C	104
Cc1ccc(-c2c(C#N)c(N)n(C)c(=O)c2C#N)c(C)c1	100
CCOC(=O)c1cccc(NS(=O)(=O)c2cc(C(=O)OCC)n(C)c2)c1	100
CC(CNC(=O)c1nnc(Cc2ccc(Cl)cc2)o1)c1ccccc1 (stereo not drawn)	106
O=C(Nc1ccccc1Cl)c1ccccc1	101

Additional results.
SMILES	Vaccinia pol inh
ON(/C=C1\C=Nc2ccccc21)c1ccccc1	84
NS(=O)(=O)c1ccc(-n2cccc2C=Nn2cnnc2)cc1	99
Cn1c[n+](C)cc1C(O)c1ccccc1 (stereo not drawn)	100
CCCCc1ccc(-c2csc(N)n2)cc1	82
c1ccc(-c2nc(SCC3COc4ccccc4O3)oc2-c2ccccc2)cc1 (stereo not drawn)	100
Cc1ccc(NC(=O)CCc2nnc3ccc(N4CCN(C5CCCCC5)CC4)nn23)cc1C	90
COC(=O)c1ccc(NC(=S)NC(=O)N2CCOCC2)cc1	100
CCc1cccc(NC(=O)Cn2c(C(=O)OC)cc3ccsc32)c1	105
Cc1onc(-c2ccccc2)c1C(=O)/C=C/N(C)C	101
Cc1cccc(-c2nc3n(n2)C(=O)CC(c2ccc(F)cc2)S3)c1 (stereo not drawn)	90
Cc1ccc2onc(CNC(=O)N(C)C3CCCCC3)c2c1	102
O=c1c2cc(-c3ccccc3)sc2ncn1/N=C/c1cccs1	105
O=C(NCc1ccc(Cl)cc1)C1(NS(=O)(=O)c2cccc3cccnc23)CCCCC1	96
COCc1cc(C)n(CC(=O)Nc2cc(Cl)ccc2OC)c(=O)c1C#N	101
C=CCON1C(=O)C2C3C=CC(O3)C2C1=O (stereo not drawn)	101
CCSc1nc2c([nH]c3ccccc32)c(=O)n1-c1ccccc1	96
CC(C)=CCC(O)C1=CC(=O)c2c(O)ccc(O)c2C1=O (stereo not drawn)	82*
O=C(O)CNC(=O)COc1cccc2ccccc12	100
O=C(c1ccccc1C(=O)N1CCCCC1)N1CCCCC1	102
CC1=CC(c2ccccc2)=C(C#N)C(=S)C1CC(=O)c1cccs1 (stereo not drawn)	100
COc1cc(N)c(C#N)cc1OC	102
CCOC(=O)/C(C#N)=C(/N)c1cc2cccc(OC)c2oc1=O	100
C=C1/C(=C\C=C2/CCC[C@]3(C)[C@@H]([C@H](C)CCCC(C)(C)O)CC[C@@H]23)C[C@@H](O)C[C@@H]1O	101
CC(=O)Nc1nc(Br)sc1Cc1ccc(C)cc1	101
COc1ccc(C2=Nc3ccccc3C2=O)cc1	107
O=C(CCN1CCCCC1)Nc1ccc(Cl)cc1	99
Cn1nnc(N2C(=O)C(O)=C(C(=O)c3ccco3)C2c2ccccc2)n1 (stereo not drawn)	100
Cn1c(=O)cc(SCC(=O)N2CCCC2)c2ccccc21	98
CC(C)(C)N1CN=C(SCc2ccc(Cl)cc2)NC1	82
COc1ccc(/C=C2/NC(=O)NC2=O)cc1	98
Cc1c(-c2ccccc2)nc2sc3c(c2c1N)CCCC3	100
Nc1cc(-c2ccccc2)nn1CC1CCCCC1	100
CN1CC[C@]23c4c5ccc(O)c4O[C@H]2[C@H](O)C=CC3[C@H]1C5 (stereo partly drawn)	99
CC(C)C(NC(=O)C(c1ccccc1)c1ccccc1)C(=O)N1CCOCC1 (stereo not drawn)	100
O=S(=O)(c1cccs1)N1CCN(c2cccc(Cl)c2)CC1	100
CCN(c1ccccc1)S(=O)(=O)c1ccc2[nH]cc(C(=O)N3CCOCC3)c(=O)c2c1	100
CCc1ccc(NC(=O)CCc2nc3ccccc3[nH]2)cc1	84
Cc1nc2cc(CC(=O)O)ccc2s1	97
O=C(NC1CCCCC1)[C@H]1CCCC[C@H]1C(=O)O	105
COC(=O)c1ccc(N=C/C(Br)=C/c2ccccc2)cc1	94

Sorted by length of the SMILES (ascending): part of the list above
SMILES	Vaccinia pol inh
O=C(NC1CCCCC1)[C@H]1CCCC[C@H]1C(=O)O	105
CC(C)C(NC(=O)C(c1ccccc1)c1ccccc1)C(=O)N1CCOCC1 (stereo not drawn)	100
CN1CC[C@]23c4c5ccc(O)c4O[C@H]2[C@H](O)C=CC3[C@H]1C5 (stereo partly drawn)	99

Later entries:
SMILES	Vaccinia pol inh
O=C1Nc2ccccc2S/C1=C/Nc1ccc(Cl)cc1	86
Cc1c(-c2c(Cl)cccc2Cl)noc1C(=O)CN=S(C)(=O)c1ccc(C(F)(F)F)cn1 (stereo not drawn)	102
O=C(NC1CCCCC1)C1C2C=CC3(CN(Cc4cccs4)C(=O)C13)O2 (stereo not drawn)	98
COc1ccc(NC(=O)CSc2nc(-c3ccccc3)cc(=O)[nH]2)cc1	100
Nc1nc(=Nc2ccccc2)ss1	98
Cc1ccc(NC(=O)CC2Sc3ccc(C(F)(F)F)cc3NC2=O)c(C)c1 (stereo not drawn)	100
Cc1ccc(S(=O)(=O)NCc2ccco2)c(C)c1C	99
O=C(NCCN1CCN(c2nccc(C(F)(F)F)n2)CC1)c1cccs1	105
COc1ccc(C2C(C(=O)N3CCCC3)c3cc(OC)c(OC)cc3C(=O)N2C)cc1 (stereo not drawn)	86
CC(C)CN(CC(C)C)C(=O)NCc1noc2ccccc12	100
COc1cccc(-n2c(SCC(=O)NC3CCCC3)nc3c(c2=O)SCC3)c1	102
O=C(O)c1c(CNC2CCCc3ccccc32)c2ccccc2n1Cc1ccc(F)cc1Cl (stereo not drawn)	94
CCSC1=C(C#N)C(c2ccc(OCc3ccccc3)cc2)C2=C(CCCC2=O)N1 (stereo not drawn)	99
CC1(C)CCc2cc(S(=O)(=O)N(Cc3ccccn3)Cc3ccccn3)ccc2O1	100
O=C(CC=Nc1ccccc1)c1ccccc1	96
Cc1cc2cc(CNC(=O)CCC3CCCCC3)ccc2n1C	105
CC1CCN(C(=O)c2scc3c2CCCC3)CC1	100
COc1ccc(C(=O)Nc2ccc(Cl)cc2)cc1S(=O)(=O)Nc1ccc(Cl)cc1	100
c1ccc(C(NCc2cccs2)c2ccccc2)cc1	91
CC1CC(C)CN(C(=O)c2cc3c(s2)CCCC3)C1 (stereo not drawn)	97
CC(=O)Nc1ccc(-c2nnc3n(Cc4ccccc4Cl)c(=O)c4ccccc4n23)cc1	104
CC(Oc1ccc(Cl)cc1)C(=O)OCC(=O)Nc1ccc(F)cc1F (stereo not drawn)	106
CSc1ncc(Cl)c(C(=O)Nc2ccc(C)cc2)n1	94
Cc1ccccc1Nc1ncnc2nc[nH]c12	101
O=C(OC(C(=O)c1ccccc1)c1ccccc1)c1cnc(Cl)c(Cl)c1 (stereo not drawn)	101
Cc1cccc(N(CC(=O)Nc2ccccc2)S(C)(=O)=O)c1C	100
COc1ccc(N(C)C(=O)c2cn(CC(C)C)c(=O)c3cc(OC)c(OC)cc23)cc1	93
CCOC(=O)c1ccc2c(c1)ncn2/C=C\NC(=O)c1ccc(Cl)cc1	99
O=C(Cn1ncc2ccccc21)Nc1cc(-c2cccc(Cl)c2)no1	90
COC(=O)c1ccsc1NC(=O)c1ccc(C)cc1	111
CCN(CC)C(=O)c1sc2nc3c(cc2c1N)C(=O)CC(C)(C)C3	90
CN(C)c1ccc(C(=O)OCC(=O)Nc2ccc(F)cc2F)cc1	102
CC(C)CC(=O)NC(C)C(c1cccs1)N1CCN(c2ccccc2)CC1 (stereo not drawn)	101
O=C1CC[C@@]2(O)[C@H]3Cc4ccc(O)c5c4C2(CCN3CC2CC2)[C@H]1O5	100
O=S(=O)(c1ccc(C(F)(F)F)cc1)n1nccc1-c1cc(-c2ccccc2)no1	100
COc1cccc(NC(=O)Cn2c(C(F)(F)F)nc3ccccc32)c1	115
O=C(Oc1ccc(Cl)cc1)C1c2ccccc2Oc2ccccc21	100
Cc1c(NC(=O)CCN2C(=S)NC(C)(C)CC2C)c(=O)n(-c2ccccc2)n1C (stereo not drawn)	91
O=C(O)c1ccc2nc(N3CCCCC3)sc2c1	102
CCCN(CCC)Cc1csc2c1CCCC2	96
CCOC(=O)C1C(=O)C=C(c2ccco2)CC1c1ccc(CC)cc1 (stereo not drawn)	98

Reformatted as labelled records: part of the list above.
O=C(Oc1ccc(Cl)cc1)C1c2ccccc2Oc2ccccc21
  Vaccinia pol inh: 100

CCOC(=O)C1C(=O)C=C(c2ccco2)CC1c1ccc(CC)cc1 (stereo not drawn)
  Vaccinia pol inh: 98

Cc1c(NC(=O)CCN2C(=S)NC(C)(C)CC2C)c(=O)n(-c2ccccc2)n1C (stereo not drawn)
  Vaccinia pol inh: 91

CCCN(CCC)Cc1csc2c1CCCC2
  Vaccinia pol inh: 96

The list is partial (hit frequency here may not be typical).
